Vaccinia Venus = inhibitors of vaccinia virus (Venus reporter); Potency, µM (top dose mostly 36.5 µM), for the others: at the top dose activity change, negative = inhibition, usual class: inhibitors; hit rate 0.46% among 330,000; AID 720580; Vaccinia virus Venus reporter expression, fluorescence; active means well fitted inhibition curve with a large enough effect; inconclusive means small, poorly fitted or top-dose-only effect; inactive means no such curve, though single readings can be large or run the other way; tested in A549 cells; also: nearly all actives have a fitted effect of over 30% in size; inactives centre near -10
VACV mCherry inh = inhibitors of vaccinia virus infection (mCherry reporter signal) | Vaccinia virus mCherry reporter infection, fluorescence; about a quarter of the inactives have no number | Potency, µM (top dose mostly 36.5 µM), for the others: top-dose activity change, negative = inhibition, actives largely listed as inhibitors | hit rate 0.63% among 310,000 | AID 720579; active = well fitted inhibition curve with a large enough effect; inconclusive = small, poorly fitted or top-dose-only effect; inactive = no such curve, though single readings can be large or run the other way; tested in A549 cells; also: nearly all actives have a fitted effect of over 35% in size; inactives centre near -10
Numbers without * were called inactive; [ ] = another dose, or the depositor's remark. % is scaled to controls: 0 for no effect and ±100 for the full control effect; potency is read from the fitted curve at half-maximal effect. Rows are unselected. About 0.86% of those tested had a hit in this group.

What do the screens show for `Cc1nc2c(OCc3ccc(C#N)cc3)cccn2c1N(C)Cc1cccs1`?
Vaccinia Venus: -12.6%; VACV mCherry inh: inactive

How did CCCCn1c(N)c(N(CCC(C)C)C(=O)c2ccc(COc3ccccc3)o2)c(=O)[nH]c1=O do in these assays?
Vaccinia Venus: -13.9%; VACV mCherry inh: inactive

How did COc1ccc(-c2cn3nc(SCC(=O)Nc4cc(C)cc(C)c4)ccc3n2)cc1 do in these assays?
Vaccinia Venus: inconclusive; VACV mCherry inh: -18.0%

How did O=C(C1=C(O)C(=O)N(CCN2CCOCC2)C1c1cccc(O)c1)c1cc2ccccc2o1 (configuration not stated) do in these assays?
Vaccinia Venus: -1.1%; VACV mCherry inh: -14.0%

What do the screens show for `COc1cc(C2c3cc4c(cc3OC(Nc3ccc(C(=O)O)cc3)C2C)OCO4)cc(OC)c1OC` (configuration not stated)?
Vaccinia Venus: inconclusive; VACV mCherry inh: inconclusive

Results for CCOc1ccc(OCC(=O)NCCS(=O)(=O)N2CCN(c3ccccc3F)CC2)cc1 ?
Vaccinia Venus: -12.2%; VACV mCherry inh: -19.9%

Results for Cc1ccc(S(=O)(=O)N2CCOCC2)cc1C(=O)OCC(=O)Nc1ccc(Cl)cn1 ?
Vaccinia Venus: -13.0%; VACV mCherry inh: inactive

What do the screens show for `CCCOc1ccccc1/C=C1\SC(N2CCCCC2)=NC1=O`?
Vaccinia Venus: 6.1%; VACV mCherry inh: -13.8%

Results for OC(CN1CCN(c2cccc(C(F)(F)F)c2)CC1)c1c[nH]c2ccccc12 (configuration not stated) ?
Vaccinia Venus: inconclusive

Results for CCOC(=O)Cc1cc(=O)n2[nH]c(-c3ccccc3)c(-c3ccccc3)c2n1 ?
Vaccinia Venus: 16.9%; VACV mCherry inh: 8.2%

How did CCN1C(=O)CC(N2CCC(Nc3ccc(F)cc3)CC2)C1=O (configuration not stated) do in these assays?
Vaccinia Venus: -24.5%

How did Cc1ccc2cc(CN(Cc3ccco3)C(=O)C3CCCCC3)c(=O)[nH]c2c1C do in these assays?
Vaccinia Venus: -8.4%; VACV mCherry inh: inactive

Results for CCc1ccc(O)c(CNCCNCc2cc(CC)ccc2O)c1 ?
Vaccinia Venus: -19.2%; VACV mCherry inh: inconclusive

What do the screens show for `CC(C)Nc1nc(NCc2ccccc2)c2sccc2n1`?
Vaccinia Venus: inconclusive; VACV mCherry inh: -21.3%

What do the screens show for `Cc1c(CCO)sc[n+]1CC(=O)OCCC12CC3CC(CC(C3)C1)C2`?
Vaccinia Venus: 5.6%; VACV mCherry inh: inactive

How did O=Cc1ccc(/C=C2\C=Cc3ccccc32)cc1 do in these assays?
Vaccinia Venus: -17.7%; VACV mCherry inh: -8.7%

What do the screens show for `COC(=O)C1CCN(C2CN(C3CCCCC3)S(=O)(=O)C2)CC1` (configuration not stated)?
Vaccinia Venus: -3.7%; VACV mCherry inh: 41.2%[activator]

Results for O=c1c(-c2nnc(SCc3ccc(Cl)c(Cl)c3)o2)cccn1Cc1ccccc1 ?
Vaccinia Venus: -8.6%; VACV mCherry inh: -7.0%

Results for Cc1ccc2nc(-c3ccc(SCC(=O)Nc4nc(C)cs4)nc3)[nH]c2c1 ?
Vaccinia Venus: inconclusive; VACV mCherry inh: inconclusive

What do the screens show for `COC(=O)Oc1ccc(/C=N/NC(=O)CN(c2ccccc2Cl)S(C)(=O)=O)cc1OC`?
Vaccinia Venus: -18.4%

How did Nc1c(-c2ccc(F)cc2)cnn1C1CCS(=O)(=O)C1 (configuration not stated) do in these assays?
Vaccinia Venus: 2.9%

How did CN1CCN(CC(=O)Nc2cccc(S(=O)(=O)N(C)c3ccccc3)c2)CC1 do in these assays?
Vaccinia Venus: -2.1%; VACV mCherry inh: inactive

How did COc1cccc(Cn2nnc3c(=O)[nH]c(C4CCN(C(=O)c5ccccc5Cl)CC4)nc32)c1 do in these assays?
Vaccinia Venus: -11.7%; VACV mCherry inh: -10.3%

Results for COc1ccc(N2C(=O)CSC23C(=O)N(CC(=O)Nc2ccccc2F)c2ccccc23)cc1 (configuration not stated) ?
Vaccinia Venus: -0.4%; VACV mCherry inh: -1.0%

Results for CCOc1ccc(C(=O)NCC(=O)N2CCC3CCCCC3C2)cc1OCC (configuration not stated) ?
Vaccinia Venus: inconclusive; VACV mCherry inh: -25.5%

How did COc1ccc(OC)c(-n2c(=O)[nH]c3cc(C(=O)NCCc4ccc(OC)c(OC)c4)ccc3c2=O)c1 do in these assays?
Vaccinia Venus: 9.8%; VACV mCherry inh: 8.1%

Results for CC(NC(=O)Cn1cc(C(F)(F)F)cc(Cl)c1=O)c1ccccc1 (configuration not stated) ?
Vaccinia Venus: 2.3%; VACV mCherry inh: inactive

How did CCC(=O)N1CCN(c2ccccc2NC(=S)NC(=O)c2cccc([N+](=O)[O-])c2)CC1 do in these assays?
Vaccinia Venus: -16.2%; VACV mCherry inh: -23.3%

Results for CCNc1nc(C)cc(COC)c1C#N ?
Vaccinia Venus: -7.5%; VACV mCherry inh: -22.3%

How did COc1cc(-c2nc(C)c(C(C)=O)n2O)ccc1OCC(=O)Nc1ccc(Cl)cc1 do in these assays?
Vaccinia Venus: -10.4%; VACV mCherry inh: inconclusive

Results for O=C(CCNC(=O)c1ccc([N+](=O)[O-])cc1)NCCC1=CCCCC1 ?
Vaccinia Venus: -1.2%; VACV mCherry inh: -2.3%

Results for CCOC(=O)c1sc(NC(=O)CSc2nnc(Cc3ccccc3)o2)c(C#N)c1C ?
Vaccinia Venus: 12.3%

What do the screens show for `Cc1cc(C)cc(N=C2NC(=O)CS2)c1`?
Vaccinia Venus: -11.1%; VACV mCherry inh: -15.4%

Results for Nc1nnc(SCCCC(=O)c2ccc(F)cc2)s1 ?
Vaccinia Venus: -18.1%; VACV mCherry inh: -6.1%

How did CCc1nnc(NC(=O)CN2C(=O)N(C)C3(CCCCC3)C2=O)s1 do in these assays?
Vaccinia Venus: -22.0%; VACV mCherry inh: -17.2%

Results for CCC(=Cc1ccccc1O)c1ccncc1 ?
Vaccinia Venus: -10.4%; VACV mCherry inh: -6.5%

How did Cc1ccc(C(=O)N/C(=C\c2ccco2)C(=O)NCC2CCCO2)cc1C (configuration not stated) do in these assays?
Vaccinia Venus: -8.2%

How did CC1CN(S(=O)(=O)c2ccc(C(=O)N(C)C3CCCCC3)cc2)CC(C)O1 (configuration not stated) do in these assays?
Vaccinia Venus: -10.2%; VACV mCherry inh: inactive

What do the screens show for `Cc1ccc(CN(Cc2ccco2)c2cnc(S(C)(=O)=O)nc2C(=O)Nc2ccccc2Br)o1`?
Vaccinia Venus: -12.0%; VACV mCherry inh: -13.5%

What do the screens show for `CCOC(=O)C1(Cc2ccccc2Cl)CCN(C(=O)CN2CCOC2=O)CC1`?
Vaccinia Venus: -11.5%; VACV mCherry inh: inactive

How did CC(=O)c1ccc(NC(=O)c2ccccc2-c2ccccc2C(=O)O)cc1 do in these assays?
Vaccinia Venus: -11.3%; VACV mCherry inh: inactive

What do the screens show for `Cc1ccc(C(=O)Nc2ccc3[nH]c(=O)c(=O)[nH]c3c2)cc1`?
Vaccinia Venus: -2.2%; VACV mCherry inh: -4.1%

Results for Cc1ccc(CN2CCSc3ccc(C(=O)N4CCN(c5ccc(Cl)cc5)CC4)cc32)cc1 ?
Vaccinia Venus: -13.5%; VACV mCherry inh: -11.3%

What do the screens show for `CCOC(=O)C1CCN(C(=O)c2c(C)nn(-c3ccc(F)cc3)c2-n2cccc2)CC1`?
Vaccinia Venus: 5.4%; VACV mCherry inh: 0.1%

What do the screens show for `O=C(NCCS(=O)(=O)NCc1ccccc1Cl)c1ccc2c(c1)OCO2`?
Vaccinia Venus: -3.2%; VACV mCherry inh: -13.1%

Results for CCOC(=O)CSc1nc(N)c(C#N)c(-c2cccs2)c1C#N ?
Vaccinia Venus: -14.6%; VACV mCherry inh: -15.9%

What do the screens show for `COc1ccc(/C=C2/C(=O)N(CC3CCCO3)C(=S)N2C)c(OC)c1` (configuration not stated)?
Vaccinia Venus: -20.3%; VACV mCherry inh: -8.1%

How did CCOC(=O)C(Cc1cc(C(C)=O)ccc1OCC)C(=O)OCC do in these assays?
Vaccinia Venus: -11.7%

Results for COc1ccc(S(=O)(=O)N2CCN(C(=O)CC(C)C)CC2)cc1 ?
Vaccinia Venus: -13.2%; VACV mCherry inh: inactive

What do the screens show for `CCOc1ccc2oc(C(=O)OCC(=O)N(CC(C)C)c3c(N)n(Cc4ccccc4)c(=O)[nH]c3=O)c(C)c2c1`?
Vaccinia Venus: -17.7%; VACV mCherry inh: -7.3%

For convenience, 2 of the compounds above:
How did CC(=O)c1ccc(NC(=O)c2ccccc2-c2ccccc2C(=O)O)cc1 do in these assays?
Vaccinia Venus: -11.3%; VACV mCherry inh: inactive

What do the screens show for `Cc1ccc(C(=O)Nc2ccc3[nH]c(=O)c(=O)[nH]c3c2)cc1`?
Vaccinia Venus: -2.2%; VACV mCherry inh: -4.1%

Remaining list, next part
Results for COc1cccc(-n2c(=O)c3c(C)c(C)sc3n(Cc3ccccc3C#N)c2=O)c1 ?
Vaccinia Venus: -3.0%; VACV mCherry inh: -5.7%

Results for CCC(CO)Oc1cc(NCc2cccc(C(F)(F)F)c2)c2ncn(C(C)C)c2c1 (configuration not stated) ?
Vaccinia Venus: -12.0%; VACV mCherry inh: -23.0%

What do the screens show for `CCOC(=O)C1CCN(C(=O)/C=C/c2ccc(OC)cc2)CC1`?
Vaccinia Venus: -1.6%; VACV mCherry inh: 3.0%

How did O=c1c2ccccc2nc(-c2cccc(Cl)c2)n1O do in these assays?
Vaccinia Venus: 0.0%; VACV mCherry inh: -1.2%

Results for C=CCN(CC=C)c1ccc(N2C(=O)C3CCCCC3C2=O)cc1[N+](=O)[O-] (configuration not stated) ?
Vaccinia Venus: -2.1%; VACV mCherry inh: -4.9%

Results for CCC(=O)Nc1ccc(NCc2ccc(-c3ccccc3)cc2)cc1 ?
Vaccinia Venus: -6.4%; VACV mCherry inh: -12.8%

Results for Cc1cc(NC(=O)N2CCC(CN3CCCCCC3)CC2)ccc1Br ?
Vaccinia Venus: -11.6%; VACV mCherry inh: -7.1%

How did COc1cccc(Nc2nc3ccccc3c(=O)[nH]2)c1 do in these assays?
Vaccinia Venus: -19.1%; VACV mCherry inh: -6.2%

Results for Cc1nn2c(=O)cc(COC(=O)c3ccccc3NC(=O)C3CCCCC3)nc2s1 ?
Vaccinia Venus: -10.0%; VACV mCherry inh: -17.1%

Results for Cc1oc(-c2ccoc2)nc1CN(Cc1ccccc1)CC1CC1 ?
Vaccinia Venus: -14.7%; VACV mCherry inh: inactive

Results for COc1cc(C2CC(=O)Oc3c(C(CCN4CCOCC4)c4ccc(N(C)C)cc4)c(OC)cc(OC)c32)cc(OC)c1OC (configuration not stated) ?
Vaccinia Venus: -9.5%; VACV mCherry inh: inactive

How did CCCN(CCC)Cc1c(C(=O)N/N=C/c2c[nH]c3ccccc23)nnn1-c1nonc1N do in these assays?
Vaccinia Venus: -19.2%; VACV mCherry inh: inconclusive

How did COC(=O)/C(=N/Nc1ccccc1Cl)Sc1nnc(C(O)c2ccccc2)n1-c1ccccc1 (configuration not stated) do in these assays?
Vaccinia Venus: -4.0%; VACV mCherry inh: -4.5%

What do the screens show for `O=c1c2ccccc2c(-c2ccccc2)nn1-c1ccccc1`?
Vaccinia Venus: -19.9%; VACV mCherry inh: -0.5%

What do the screens show for `CC1CC(C)(C)CC2(C1)NC(=O)N(CC(=O)NC1CCCc3ccccc31)C2=O` (configuration not stated)?
Vaccinia Venus: -11.8%; VACV mCherry inh: inactive

Results for Cc1nc(C)n(CCNS(=O)(=O)c2ccccc2)n1 ?
Vaccinia Venus: -1.4%; VACV mCherry inh: inactive

How did COc1cccc(CC2(CO)CCN(Cc3cnc(N4CCOCC4)s3)CC2)c1 do in these assays?
Vaccinia Venus: -8.1%; VACV mCherry inh: -3.8%

What do the screens show for `CC(=O)Nc1cncc(-c2cccc(N(C)C)c2)n1`?
Vaccinia Venus: 11.4%; VACV mCherry inh: 55.5%[activator]

What do the screens show for `COCc1ccc(C(=O)NC2CCSc3ccccc32)cc1` (configuration not stated)?
Vaccinia Venus: 0.7%; VACV mCherry inh: -10.7%

Results for CCOc1ncccc1C(=O)Nc1ccc(OC)c(S(=O)(=O)N2CCOCC2)c1 ?
Vaccinia Venus: -1.7%; VACV mCherry inh: -11.6%

What do the screens show for `CCN(CC)CC(=O)Nc1ccc(Cl)cc1C(=O)c1ccccc1`?
Vaccinia Venus: -10.4%; VACV mCherry inh: -14.6%

What do the screens show for `CC1=C(C(=O)NCc2ccc(C)cc2)C2(CCCCC2)OC1=O`?
Vaccinia Venus: -9.1%; VACV mCherry inh: -11.6%

Fetched by structure from above (six):
What do the screens show for `CC1CC(C)(C)CC2(C1)NC(=O)N(CC(=O)NC1CCCc3ccccc31)C2=O` (configuration not stated)?
Vaccinia Venus: -11.8%; VACV mCherry inh: inactive

What do the screens show for `COCc1ccc(C(=O)NC2CCSc3ccccc32)cc1` (configuration not stated)?
Vaccinia Venus: 0.7%; VACV mCherry inh: -10.7%

Results for COc1cc(C2CC(=O)Oc3c(C(CCN4CCOCC4)c4ccc(N(C)C)cc4)c(OC)cc(OC)c32)cc(OC)c1OC (configuration not stated) ?
Vaccinia Venus: -9.5%; VACV mCherry inh: inactive

Results for Cc1nc(C)n(CCNS(=O)(=O)c2ccccc2)n1 ?
Vaccinia Venus: -1.4%; VACV mCherry inh: inactive

How did CCCN(CCC)Cc1c(C(=O)N/N=C/c2c[nH]c3ccccc23)nnn1-c1nonc1N do in these assays?
Vaccinia Venus: -19.2%; VACV mCherry inh: inconclusive

What do the screens show for `O=c1c2ccccc2c(-c2ccccc2)nn1-c1ccccc1`?
Vaccinia Venus: -19.9%; VACV mCherry inh: -0.5%

High-throughput results from PubChem.
